Insulin prom inh: inhibitors of insulin promoter-driven GFP, primary screen, imaging, TRM-6 cells (human fetal islet line), eGFP reporter, cell count; AID 1273, 2008; reporter expression induced with tamoxifen; inhibition, % at 2 µM; hit rate 0.9% among 130,000;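 active = inhibition above the mean plus 3 SD, with well images judged a real hit on visual review, cut at about 60% in these data, passing the limit was not always enough; inconclusive = inhibition over the cutoff but images rejected on review; inactive = inhibition not above the cutoff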
GALR2 agonist: GALR2 receptor agonists, primary screen, cell-based; Galanin receptor type 2 (Homo sapiens), O43603; activation, %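 (tested at 5 µM)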; GALR2-expressing cells, agonist activation read-out; hit rate 0.48% among 140,000;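 active = above mean plus 3 SD of all compounds, about 5% in these data, not always enough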;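 also: 0% = vehicle buffer wells and 100% = reference agonist at full effect; tested in CHO reporter cells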
Target sequence (O43603 whole entry, looked up): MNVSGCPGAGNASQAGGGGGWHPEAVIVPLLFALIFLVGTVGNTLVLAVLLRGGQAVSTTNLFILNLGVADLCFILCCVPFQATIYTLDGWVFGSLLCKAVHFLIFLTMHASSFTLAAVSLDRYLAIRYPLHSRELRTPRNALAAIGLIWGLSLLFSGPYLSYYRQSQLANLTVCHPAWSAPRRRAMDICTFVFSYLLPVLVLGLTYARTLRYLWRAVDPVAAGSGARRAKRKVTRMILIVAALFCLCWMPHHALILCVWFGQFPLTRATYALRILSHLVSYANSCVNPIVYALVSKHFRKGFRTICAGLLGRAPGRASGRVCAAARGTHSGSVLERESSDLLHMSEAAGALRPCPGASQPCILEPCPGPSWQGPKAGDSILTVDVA
PKD1 kinase inh: inhibitors of human PKD1 kinase, biochemical, fluorescence polarization. PKD1 kinase fluorescence polarization assay. inhibition, %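 (about 10 µM by stock and volumes)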. hit rate 0.056% among 200,000. Serine/threonine-protein kinase D1 (Homo sapiens), Q15139. AID 797, 2007;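 active = inhibition of 50% or more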;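 also: controls were vehicle for no effect and a reference inhibitor for full effect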
RGS16-Gao HTS: modulators of RGS16 binding to Galphao, primary screen, biochemical, human proteins, multiplexed bead flow cytometry | bead-based flow cytometry RGS16-Galphao binding, fluorescence; actives lie on both sides | binding response (% of control), % at 10 µM | hit rate 0.38% among 220,000 | AID 1441, 2008;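 active = below 25% or above 175%, edge rows of some plates excepted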;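 also: Galphao activated by GDP with aluminum fluoride before binding; 100% = wells without compound and 0% = beads without RGS; some results beyond the cut were filed as inactive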
Target sequence (O15492 whole entry, looked up): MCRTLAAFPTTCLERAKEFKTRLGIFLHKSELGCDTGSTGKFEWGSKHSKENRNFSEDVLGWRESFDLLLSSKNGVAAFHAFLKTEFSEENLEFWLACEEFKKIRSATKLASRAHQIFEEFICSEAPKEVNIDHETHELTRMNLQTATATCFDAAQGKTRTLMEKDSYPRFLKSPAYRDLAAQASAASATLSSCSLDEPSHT
Target sequence (P09471 whole entry, looked up): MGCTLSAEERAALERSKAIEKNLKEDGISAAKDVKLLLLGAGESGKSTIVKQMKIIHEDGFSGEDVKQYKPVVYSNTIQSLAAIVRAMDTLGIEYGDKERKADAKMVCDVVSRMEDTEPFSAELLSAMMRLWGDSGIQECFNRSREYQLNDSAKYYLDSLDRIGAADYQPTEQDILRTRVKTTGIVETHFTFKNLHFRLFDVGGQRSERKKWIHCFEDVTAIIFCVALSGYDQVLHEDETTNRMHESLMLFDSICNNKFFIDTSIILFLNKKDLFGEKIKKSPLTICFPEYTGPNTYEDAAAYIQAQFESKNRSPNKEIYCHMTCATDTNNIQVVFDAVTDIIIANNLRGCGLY
HSV augment: enhancers of HSV replication in host cells, fold increase, host cell viability. hit rate 0.005% among 220,000. AID 1956, 2009. maximum fold increase. HSV replication augmentation in cells;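 active = peak rise of 1.5-fold or more in the series; inconclusive = self-fluorescent or not available for retest; tested in PC3 cells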;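 also: first round at 10 µM; read as green reporter fluorescence; hits show the peak of a series up to 25 µM; 1 = signal of infected wells without compound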
Insulin prom inh cell count: recorded beside Insulin prom inh, whose call it bears; normalized cell count, %; measured here: cell count, toxicity; reference of the scale not given here;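 cells exposed to compound for 48 h; stained nuclei by imaging scaled within each plate; lower means fewer cells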
HSV augment primary fold: also measured in HSV augment; calls as there; fold increase; compound at 10 µM; measured here: primary screen fold increase 10 uM; tested in PC3 cells;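 GFP signal in the first replicate; 1 = infected wells without compound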
* hit, by the source's call; i = inactive; u = inconclusive; x = no result given.

SMILES	Insulin prom inh	Insulin prom inh cell count	GALR2 agonist	PKD1 kinase inh	RGS16-Gao HTS	HSV augment	HSV augment primary fold
COc1ccc2nc(/C=N/NC(=O)CCNC(=O)OC(C)(C)C)ccc2c1	x	x	x	x	95	i	0.99
CCOC(=O)N1CCN(c2cc(=O)n(Cc3ccc(F)cc3)c(=O)[nH]2)CC1	6	126	-2.3	-4	101	i	1
Cn1c(NC(=O)C(C)(C)Oc2ccc(Cl)cc2)cc(=O)n(C)c1=O	57	144	-1.8	-2	95	i	0.99
c1ccc(CCn2c(SCc3ccccc3)nnc2-c2ccncc2)cc1	-11	172	-2.2	7	102	i	1.1
COc1cccc(NC(=S)N2CCN(C(c3ccccc3)c3ccccc3)CC2)c1	-10	112	-0.7	0	115	i	0.95
CCN(CC)S(=O)(=O)c1ccc(NC(=O)c2cc(=O)[nH]c3ccccc23)cc1	x	x	x	-7	99	i	0.84
CCN1CCN(c2ccc(NC(=O)c3cccc4ncccc34)cc2)CC1	24	94	-2.9	1	107	i	0.97
Cc1ccc2[nH]c(O)c(N=NC(N)=S)c2c1	x	x	x	x	100	i	0.97
Cc1ccc(/C=[N+](\[O-])c2ccc(N(C)C)cc2)c2nsnc12	x	x	x	-6	98	u	x
O=C(CNC(=O)c1cc(=O)[nH]c2ccccc12)Nc1ccc(F)c(F)c1	x	x	x	6	102	i	0.9
N#CC1(Cc2ccccc2)c2ccccc2C=CN1C(=O)c1ccccc1 (stereo not drawn)	-59	103	-4.6	5	102	i	0.99
O=C1CC(N2CCCCC2)C(=O)N1c1ccccc1 (stereo not drawn)	56	128	-0.9	-2	97	i	0.95
Cc1cc(=O)oc2cc(OCC(=O)N3CCOCC3)ccc12	19	92	-2.1	-1	30	i	1.1
CSc1ccccc1NC(=O)Nc1cccc(Cl)c1Cl	-73	78	-1.5	12	98	i	0.85
CCOCC(=O)Nc1nc2ccc(OCC)cc2s1	-5	206	-0.9	-4	100	i	1
Cc1cccc(C)c1NC(=O)C(NC=O)c1ccccc1 (stereo not drawn)	x	x	-1.1	7	37	i	0.89
CC(C)(ONC(=O)Nc1ccccc1Cl)C(=O)O	x	x	x	x	105	i	0.93
COc1ccc([N+](=O)[O-])cc1NC(=S)NC(NC(C)=O)C(Cl)(Cl)Cl (stereo not drawn)	x	x	x	x	99	i	1
O=S(=O)(CCN1CCSCC1)c1ccc(Cl)cc1	x	x	x	x	105	i	0.96
O=C(O)c1cc2c(cc1Cl)N1CCCCCC1=NS2(=O)=O	-22	53	x	-2	96	i	0.84
O=C(NC1CCCC1)c1n[nH]c2ccccc12	x	x	x	-5	106	i	0.99
COc1ccc(NC(=O)c2ccc3ccccc3n2)cc1S(=O)(=O)N1CCCCC1	x	x	-1.2	1	105	i	1
COc1ccc2[nH]c(=O)c(CN(C(=O)NC3CCCCC3)C3CCCC3)cc2c1	0	73	-1.3	-3	65	i	0.73
CSC(=Nc1ccccc1)C1=C(O)COC1=O	21	97	-2.3	-2	86	i	1
O=C1CCCc2c1nc(-c1ccc([N+](=O)[O-])cc1)n2O	x	x	x	x	101	i	1.3

Next section (5 carried over from the part before).
SMILES	Insulin prom inh	Insulin prom inh cell count	GALR2 agonist	PKD1 kinase inh	RGS16-Gao HTS	HSV augment	HSV augment primary fold
O=C(NC1CCCC1)c1n[nH]c2ccccc12	x	x	x	-5	106	i	0.99
COc1ccc(NC(=O)c2ccc3ccccc3n2)cc1S(=O)(=O)N1CCCCC1	x	x	-1.2	1	105	i	1
COc1ccc2[nH]c(=O)c(CN(C(=O)NC3CCCCC3)C3CCCC3)cc2c1	0	73	-1.3	-3	65	i	0.73
CSC(=Nc1ccccc1)C1=C(O)COC1=O	21	97	-2.3	-2	86	i	1
O=C1CCCc2c1nc(-c1ccc([N+](=O)[O-])cc1)n2O	x	x	x	x	101	i	1.3
Cc1nn(C)c(C)c1/C=C(\C#N)C(N)=O	27	113	-0.8	-3	106	i	0.92
N=c1c2cn[nH]c2nc(SCC(=O)c2ccc(Br)cc2)n1-c1ccc(Br)cc1	-21	100	x	-2	98	i	0.87
COc1ccc(OCc2nnc(SCC(=O)c3ccccc3)o2)cc1	x	x	x	-3	121	i	0.82
CC(C)(C)NC(=O)c1cccc(NC(=O)Cc2ccc(Br)cc2)c1	-12	116	0.7	-1	-3.3*	i	0.88
Clc1ccccc1-c1nnc2sc(-c3ccccn3)nn12	6	50	0.5	2	x	i	0.84
COc1cc2c(cc1OC)-c1cc(OCc3ccccc3Cl)nc(=O)n1CC2	66*	33*	0.8	9	104	i	0.65
O=C(CSc1nc2ccccc2c(=O)n1-c1ccc(F)cc1)Nc1ccc2c(c1)CCC2	-31	98	-1.1	-11	106	i	0.81
Cc1cc(N)c2ccccc2n1	x	x	x	-2	117	i	0.99
CC1Sc2ccc(C(=O)O)cc2NC1=O (stereo not drawn)	19	70	-1.9	2	94	i	1.1
CCCOC(=O)c1cccc(NC(=O)COc2ccc([N+](=O)[O-])cc2)c1	7	135	0.4	3	104	i	0.87
Cc1ccc(C(=O)N/N=C2\CC3CC=CC23)c(C)c1 (stereo not drawn)	x	x	x	-5	100	i	1
Cc1ccc2nc(C3CCN(C(=O)c4ccco4)CC3)[nH]c2c1	x	x	-1.7	9	102	i	1
Cc1ccc(S(=O)(=O)CNC(=S)c2cccc(Cl)c2)cc1	-2	66	-1.0	-1	100	i	0.92
Cc1nn(Cc2ccc(Cl)c(Cl)c2)c(C)c1NC(=O)c1cc(-c2ccc3c(c2)OCO3)on1	20	94	-1.5	-1	100	i	0.86
Cc1cccc(N2CCN(Cc3c(C)n(C)n(-c4ccccc4)c3=O)CC2)c1C	19	134	-2.0	-2	102	i	0.78
O=C(Oc1ccc(/C=N/Nc2ccccc2)cc1)c1ccccc1	24	78	-0.3	-16	110	i	1.1
CC(=O)c1ccc(N2CCN(C(=O)/C=C/c3ccc(S(=O)(=O)NCc4ccco4)cc3)CC2)cc1	x	x	x	0	106	i	1
CC(=O)Nn1cc2c(c1-c1ccccc1)c(=O)n(C)c(=O)n2C	-69	88	-0.4	4	110	i	0.81
Cc1ccc(/C=C/C(=O)OCC(=O)NC(C)C)o1	x	x	x	-9	98	i	0.89
CCOC(=O)C1CCCN(C(=O)c2sc3nc(-c4ccc(OC)cc4)cn3c2C)C1 (stereo not drawn)	-39	94	-2.6	-4	96	x	x
CCCNC(=O)c1ccccc1NS(=O)(=O)c1ccc(OC)c(OC)c1	14	127	-1.3	-9	104	i	1.1
Cc1ccc(S(=O)(=O)N2CCC(C(=O)NCCCOC(C)C)CC2)cc1	6	85	-2.5	-4	104	i	0.9
CC(C)OC(=O)Cn1cnc2ccc(Br)cc2c1=O	x	x	-2.2	7	102	i	0.96
COC(=O)c1cccc(NC(=O)NC(=O)c2ccccc2Cl)c1	x	x	x	x	99	i	0.84
CCC1(C)Cc2c(C#N)c(N)n(-c3ccccc3)c(=S)c2CO1 (stereo not drawn)	x	x	x	1	94	i	1.1
The results go on.
SMILES	Insulin prom inh	Insulin prom inh cell count	GALR2 agonist	PKD1 kinase inh	RGS16-Gao HTS	HSV augment	HSV augment primary fold
O=C(c1cccs1)N1CCN(C(=O)C(c2ccccc2)c2ccccc2)CC1	36	135	-1.5	-13	93	i	1
COc1ccc(-c2csc(N3CCN(Cc4ccc5c(c4)OCO5)CC3)n2)cc1	-5	127	-3.0	-4	99	i	1.1
CC(C)C(c1nnnn1C1CCCC1)N1CCN(c2ccccc2F)CC1 (stereo not drawn)	x	x	-1.5	12	101	i	0.98
CCCCc1nc2ccccc2n2cc3c(=O)n(C)c(=O)n(C)c3c12	x	x	-1.1	-4	x	x	x
CCOC(=O)CSc1nnc(-c2ccc([N+](=O)[O-])cc2)o1	x	x	x	0	113	i	0.98
CCC(=O)NC(Nc1cc(C)cc(C)n1)(C(F)(F)F)C(F)(F)F	31	76	-2.3	-5	132	i	0.98
CC(=O)Oc1ccc(-c2ccc(C(=O)Nc3cccc(S(=O)(=O)N4CCOCC4)c3)cc2)cc1	x	x	x	-2	95	i	0.7
O=C(NC(Cc1ccccc1)C(=O)O)/C(=C/c1ccco1)NC(=O)c1cccc([N+](=O)[O-])c1 (stereo not drawn)	x	x	x	-3	103	i	1
c1ccc(COC2CCCN(Cc3nc(-c4cccs4)no3)C2)nc1 (stereo not drawn)	x	x	x	1	97	i	0.9
CCCNC(=O)OC[C@H]1O[C@H](CCO/N=C/C[C@@H]2C=C[C@H](OC(C)=O)[C@@H](COC(C)=O)O2)C=C[C@@H]1Oc1ccc(OC)cc1	-5	98	-2.6	-1	52	x	x
COc1ccccc1N1CCN(C(=O)c2ccc3[nH]c4c(c3c2)CCCC4)CC1	-10	111	-0.4	-7	104	i	0.97
O=C(Nc1sc(-c2ccccc2)cc1C(=O)O)c1ccccc1	x	x	x	x	109	i	1.1
Cc1nn2cc(-c3ccc(N)cc3)nc2s1	7	180	0.4	-7	84	i	1.2
COC(=O)C(Cc1ccccc1)NC(=O)c1cccc(S(=O)(=O)N(C)C)c1 (stereo not drawn)	x	x	x	-7	99	i	0.8
CC1=[N+](C)c2ccc3ccccc3c2C1(C)C	38	105	-1.9	8	95	x	x
Cc1onc(-c2ccccc2)c1C(=O)Nc1ccc(S(=O)(=O)NC2=NCCCCC2)cc1	-6	95	-0.2	2	98	i	1
CCN(CC)CCCNC(=O)c1ccc2c(Cl)c3c(nc2c1)CCCC3	-36	110	x	-5	101	i	0.64
CCCC(=O)N1c2ccccc2[C@@H](N(C(C)=O)c2ccccc2)C[C@H]1C	-30	141	-0.2	19	90	i	0.99
O=C1NC2(CCCCC2)N=C1c1ccccc1	x	x	-0.8	-3	99	i	1.3
CCCCNC(=S)NNC(=O)c1csc(C)c1	-77	85	-1.5	-6	102	i	0.92
C#CCOC(=O)CCCNc1ccc([N+](=O)[O-])cc1[N+](=O)[O-]	x	x	-2.0	5	101	i	0.99
COc1ccccc1NS(=O)(=O)c1cccc(NC(=O)Nc2cccc(Cl)c2)c1	10	85	-0.1	0	108	i	0.86
COC(=O)c1ccc(Oc2nc(Nc3ccc(F)cc3)nc(N3CCCC3)n2)cc1	42	125	0.1	0	118	i	0.84
CCCCNS(=O)(=O)c1cccc(S(=O)(=O)N2CCCC2)c1	35	126	-0.5	-13	104	i	0.87
O=C(NC1CCCCC1)C(c1ccccc1)N(Cc1ccco1)C(=O)Cn1cnc2ccccc21 (stereo not drawn)	x	x	0.0	2	97	i	0.87
Next part
SMILES	Insulin prom inh	Insulin prom inh cell count	GALR2 agonist	PKD1 kinase inh	RGS16-Gao HTS	HSV augment	HSV augment primary fold
Cc1c(C)n(C(=O)CN2CCN(c3ccccn3)CC2)c2ccccc12	-37	170	-0.4	-2	106	i	0.96
COc1ccccc1-c1nnn(C/C(N)=N/O)n1	-15	65	-1.1	-6	185	i	0.98
CC(=O)N=c1sc2nc3ccccc3nc2n1N(C(C)=O)C(C)=O	-12	138	-0.3	-11	102	i	1.1
O=C(NN=C1CCN(Cc2ccccc2)CC1)C(O)c1ccccc1 (stereo not drawn)	37	107	0.0	-9	114	i	0.92
COc1ccc(S(=O)(=O)N2CCCCC2)cc1NS(=O)(=O)c1ccccc1F	44	32	x	2	112	i	0.98
COc1ccc(CN2CC(C(=O)N3CCOCC3)CC2=O)cc1 (stereo not drawn)	-10	88	-1.8	-1	101	x	x
O=S(=O)(NCc1ccccc1)c1ccc(Cl)cc1	42	52	-0.7	-7	99	i	0.94
COc1cccc(C2C(C#N)=C(N)OC3=C2C(=O)CCC3)c1OC(=O)c1ccco1 (stereo not drawn)	-100	157	-1.5	-9	106	i	0.85
C=CCOc1cccc(/C=C2\C(=O)N(Cc3ccc(C)cc3)C(C)=C2C(=O)OC)c1	x	x	-0.6	-6	95	i	0.94
N#CC1=C(N)Nc2ncnn2C1c1ccc([N+](=O)[O-])cc1 (stereo not drawn)	x	x	x	x	103	i	0.91
COc1ccc(NS(=O)(=O)c2cc(NC(=O)c3cc(=O)c4ccccc4o3)ccc2OC)cc1	x	x	x	-3	98	i	0.86
O=C1Nc2ccccc2CCC1Sc1nnc(-c2ccc(Cl)cc2)s1 (stereo not drawn)	-143	88	0.4	-6	91	i	0.76

In another format: entries from further up
Values run as follows: Insulin prom inh, Insulin prom inh cell count, GALR2 agonist, PKD1 kinase inh, RGS16-Gao HTS, HSV augment, HSV augment primary fold
- COc1ccc(NS(=O)(=O)c2cc(NC(=O)c3cc(=O)c4ccccc4o3)ccc2OC)cc1
  x, x, x, -3, 98, i, 0.86
- O=C1Nc2ccccc2CCC1Sc1nnc(-c2ccc(Cl)cc2)s1 (stereo not drawn)
  -143, 88, 0.4, -6, 91, i, 0.76

Bioassay records from PubChem.
